Screening results: PubChem BioAssay, Fisher Drug Discovery Resource Center
NPYLR7 agonist = agonists of mosquito NPYLR7 receptor, primary screen, cell-based, Aedes aegypti, calcium fluorescence, mosquito biting behavior | Aedes aegypti neuropeptide Y-like receptor 7 (NPYLR7) | HEK293T NPYLR7/Galpha15, GCaMP6s calcium fluorescence | activation, % at 10 µM | actives 0.15% (n = 270,000) | AID 1259423, 2018; in the data active means activation above about 40%;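 further: 0% = vehicle and 100% = reference agonist at the receptor; some compounds past the cut are filed as inactive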
NPYLR7 agonist max-min = also measured in NPYLR7 agonist; calls as there; activation, %; measured here: Max-Min RFU normalised activation; some inactives read as strong as hits;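 span of the calcium signal over five minutes; 0% = vehicle and 100% = native peptide agonist; compound fluorescence can raise it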
An asterisk follows results filed as active; & = joins results of further samples. Only part of the results is shown; count on the stated rates, not on these rows.

smiles	NPYLR7 agonist max-min	NPYLR7 agonist
CN(C)c1nc(Nc2ccc([N+](=O)[O-])cc2)nc(OCC(F)(F)F)n1	-3	9
Cc1ccc(-c2cc(C(=O)O)n(-c3cccc(Cl)c3)n2)o1	15	14
COC(=O)c1ccc2c(c1)CC(CNC(=O)c1cccs1)O2 (stereo unspecified)	2	3
Cc1nc2c(OCCN3C(=O)CCC3=O)cccn2c1N(C)C(=O)C1CCCCC1	8	18
CCCN(C)CC1CCN(C(C)C(=O)Nc2ccc(C(F)(F)F)cc2)C1 (stereo unspecified)	15	14
COc1cccc(C(=O)N2CCC3(CC2)OCC(C(=O)NCC2CCCO2)N3C(=O)c2cccc(C)c2)c1 (stereo unspecified)	-1	0
Cc1ccc(S(=O)(=O)NCCNc2ccc(Nc3ccccn3)nn2)cc1C	6	14
CCc1c(C(=O)N(C)CC(=O)NC(C)(C)C)cnn1-c1cccc(Cl)c1	-3	0
COc1ccccc1CCN1CCC(CN(C)C(=O)c2ccc(F)c(Cl)c2)CC1	5	6
C=CCSc1nc2c(c(=O)[nH]1)C(c1cccc(OC)c1)C(C(=O)OC)=C(C)N2 (stereo unspecified)	7	3
Cc1cc(C)cc(C(=O)Oc2coc(CSc3nncn3C)cc2=O)c1	-9	-5
CN1CCNC(=O)C12CCN(C(=O)c1cc(=O)c3ccccc3[nH]1)CC2	3	8
O=C(Nc1c(F)cccc1F)N1CCC(c2ccccc2)C1 (stereo unspecified)	3	7
COCCN(CC(=O)N(Cc1cccn1Cc1ccc(F)cc1)C1CCCCC1)C(=O)COc1ccc(Cl)cc1	8	8
O=C(Nc1nnc(SCCc2ccccc2)s1)c1ccccc1Cl	6	-2
Cc1cc2c(N=NC(=O)COc3ccccc3)c(O)[nH]c2cc1Br	-8	-5
O=C(Nc1ccc(F)c(F)c1)c1ccc(Br)o1	1	5
O=C(CN1CCOCC1)N1N=C(c2ccc(F)cc2)CC1c1ccccc1Cl (stereo unspecified)	17	26
O=C(Nc1ccc(Cl)cc1)N1CCC1c1ccccc1F (stereo unspecified)	-5	-5
CCCCC(=O)NCc1ccc2[nH]c(C)cc2c1	-3	-4

Part of the list above in a different format.
> COC(=O)c1ccc2c(c1)CC(CNC(=O)c1cccs1)O2 (stereo unspecified)
  NPYLR7 agonist max-min: 2
  NPYLR7 agonist: 3
> Cc1nc2c(OCCN3C(=O)CCC3=O)cccn2c1N(C)C(=O)C1CCCCC1
  NPYLR7 agonist max-min: 8
  NPYLR7 agonist: 18
> CCCN(C)CC1CCN(C(C)C(=O)Nc2ccc(C(F)(F)F)cc2)C1 (stereo unspecified)
  NPYLR7 agonist max-min: 15
  NPYLR7 agonist: 14
> COc1cccc(C(=O)N2CCC3(CC2)OCC(C(=O)NCC2CCCO2)N3C(=O)c2cccc(C)c2)c1 (stereo unspecified)
  NPYLR7 agonist max-min: -1
  NPYLR7 agonist: 0

Additional structures:
smiles	NPYLR7 agonist max-min	NPYLR7 agonist
COc1nc(-c2ccc3c(c2)OCO3)n(-c2ccc(NC(=O)c3cccs3)cc2)n1	10	9
C[C@@H]1CN(CCCn2c3ccccc3c3ccccc32)C[C@H](C)N1	-5	-3
COCCOc1nc(-c2cccs2)n(-c2ccc(NC(=O)c3ccc([N+](=O)[O-])cc3)cc2)n1	18	2
Cc1cc(O)cc(=O)n1C(C)C(=O)NCc1ccc2c(c1)OCCCO2 (stereo unspecified)	0	0
CCCc1[nH]n(-c2ccc(Cl)cc2)c(=O)c1C1=C([n+]2cccc(C)c2)C(=O)N(C(C)C)C1=O	-6	-14
OC1CCN(c2ccnc(-c3cc(NC4CCCC4)nc4[nH]ccc34)n2)C1 (stereo unspecified)	-5	5
NCC1(N2CCCCC2)C2CC3CC(C2)CC1C3 (stereo unspecified)	-17	-12
Cc1ccc(-n2ncc(Oc3ccccc3F)c(Nc3cccc(C(=O)NCCc4ccccn4)c3)c2=O)cc1	8	9
COc1ccc(CN(C(=O)c2cc(=O)[nH]c3ccc(S(=O)(=O)N4CCOCC4)cc23)C2CC2)cc1	7	0
NC(=S)Nc1nc2ccccc2s1	11	11
CC(C)(C)OCC(O)CN(Cc1ccc(F)cc1F)C1CC1 (stereo unspecified)	13	9
CCOc1ccccc1NC(=O)N1CCN(c2nc(Cc3ccc(C)cc3)ns2)CC1C (stereo unspecified)	-20	-10
Cc1[nH]c(=O)[nH]c(=O)c1CCc1nnc(SCC(=O)Nc2ccccn2)o1	-12	-7
COc1ccc(S(=O)(=O)NC(=O)C2(C)CCN2C(=O)CC2CCCC2)cc1OC (stereo unspecified)	-10	-2
COCCNC(=S)NN=Cc1ccc(C)s1	2	0
CCCCOc1ccc(-c2nc(C=Nc3cccc(C)c3)c(O)o2)cc1	5	6
O=C(NCC1=CCCN(CC(=O)N2CCOCC2)C1)c1cccs1	-3	4
CCCn1nnc(NC(=O)c2cccc(-c3cc4ccccc4oc3=O)c2)n1	-2	-2
O=c1oc2ccccc2n1CCN1CCN(S(=O)(=O)c2cc(F)ccc2F)CC1	-8	-10
COc1ccc(NC(=O)c2cnn3c(C(F)(F)F)cc(-c4ccc(F)cc4)nc23)cc1OC	-8	-6

(list continues)
smiles	NPYLR7 agonist max-min	NPYLR7 agonist
CCn1cc(C(=O)N2CCN(C(=O)c3ccc(C)c(C)c3)CC2)c2nn(-c3ccccc3)c(=O)c-2c1	1	2
Cc1cn(CCNc2nc(C3CCCC3)nc3c2CNC3)nn1	5	8
CC(Sc1nnc(-c2cccs2)n1C1CC1)C(=O)N1CCNC1=O (stereo unspecified)	2	-1
Cc1cn2c3c(=O)n(CC(C)C)c(=O)n(C)c3nc2n1C1CCCCC1	7	14
CSCc1noc(Cn2cnnc2)n1	-4	-2
CCCCCCC(=O)N1CCCN(c2cc(Oc3ccc(F)c(Cl)c3)ncn2)CC1	-4	-17
Cn1ncc([N+](=O)[O-])c1C(=O)NCc1ccccc1	-9	-7
CC(C)c1cc(C(=O)O)nc2nncn12	2&5	3&6
COC(=O)N1CCC(NC(=O)c2c(-c3ccc(F)cc3)noc2C)CC1	5	6
O=C(NC1CCCC1)c1nn2c(c1Cl)NC(c1ccco1)CC2C(F)(F)F (stereo unspecified)	1	7
CCc1cc(Oc2ccccc2Cl)nc(SCc2ccc(F)c(F)c2)n1	8	3
Cc1cc(C(=O)OCC(=O)N2C(C)CCCC2C)c(C)n1-c1ccccn1 (stereo unspecified)	6	7
CN(CC(=O)NC1CC1)C(=O)/C=C/c1cccnc1	0	3
CC(=O)NC(O)C(=O)c1ccco1 (stereo unspecified)	3	0
C=CC(=O)NCc1cccc(-c2ncc(-c3cccc(OC)c3)[nH]2)c1	1	-1
CCN1CCC[C@H]1CNC(=O)c1c(O)c(Cl)cc(Cl)c1OC	-20&-27	-16&4
COc1cccc(CN2CCNC(=O)C2CC(=O)NC2CCCC2)c1OC (stereo unspecified)	-2	-1
CCOC(=O)CSc1nc(-c2ccccc2)cc(-c2ccccc2OC)c1C#N	-8	-3
Cc1nc(Nc2ccc3nc(C)sc3c2)c2c3c(sc2n1)CCC3	-3	-2
Cc1ccc(C(=O)Nc2ccc(S(=O)(=O)O)c3cc(S(=O)(=O)O)cc(S(=O)(=O)O)c23)cc1NC(=O)c1cccc(NC(=O)Nc2cccc(C(=O)Nc3cc(C(=O)Nc4ccc(S(=O)(=O)O)c5cc(S(=O)(=O)O)cc(S(=O)(=O)O)c45)ccc3C)c2)c1	3&-18&9&-12	-1&-13&2&-9

Going on with the list.
smiles	NPYLR7 agonist max-min	NPYLR7 agonist
CCCCC(=O)NC1(C(F)(F)F)C(=O)N(Cc2ccco2)C(C)=C1C(=O)OC (stereo unspecified)	-13	-7
Nc1nnc(-c2cccnc2)s1	11&7	6&0
CC(=O)Nc1sc(C)c(C)c1C#N	4	4
COC(=O)c1ccccc1N(C)C(=O)c1nc(SC)ncc1Cl	-6	-4
O=C(NCc1cccs1)c1cccnc1N1CCN(C(=O)c2cccs2)CC1	10	19
O=C(NC(C(=O)NC1CC1)C1CCN(C(=O)c2ccc(Cl)cc2)CC1)c1ccc2c(c1)OCO2 (stereo unspecified)	17	16
Cc1ccc(NC(=O)c2sc3nc(-c4ccccc4)cn3c2C)nc1	0	3
CC(C)n1ncc2c1N=C1CC(C)(C)CC(=O)C1C2c1ccccc1 (stereo unspecified)	-3	-3
CCNC(=O)CC1C(=O)N(Cc2ccccc2)C(=S)N1NC(=O)c1ccc(Br)cc1 (stereo unspecified)	3	4
CSc1nsc(SC)c1NC(=O)OC1CCCCC1	0	5
O=C(C1=C(O)c2ccccc2S(=O)(=O)N1)c1ccc(Cl)s1	1	5
COc1ccc([C@H]2[C@@H](C(=O)NCC3COc4ccccc4O3)c3ccccc3C(=O)N2Cc2ccccc2)cc1 (stereo partly specified)	-12	-9
CN(C)c1ccc(N=Nc2ccccc2Br)cc1	6	3
Cc1nn(-c2ccccc2)c(Oc2cccc(F)c2)c1CN(CC(O)c1ccccc1)C(C)C (stereo unspecified)	7	0
CC(NC1CCSCC1)c1ccc2c(c1)CCCC2 (stereo unspecified)	5	6
COC(=O)c1ccccc1NC(=O)/C(C#N)=C\c1cn[nH]c1-c1ccccc1	11	11
Cc1ccc(-n2[nH]c(C(C)C)c(-c3ccc(NC(=O)c4cccc(C)c4)cc3)c2=O)cc1	14	14
CS(=O)(=O)C(C#N)=Cc1ccc(Cl)cc1	-2	4
N#CCSc1nc(Nc2ccc3c(c2)OCO3)c2ccccc2n1	8	18
CCn1c(C2CCCNC2)nn(CCc2cccc3ccccc23)c1=O (stereo unspecified)	10	12

Later entries
smiles	NPYLR7 agonist max-min	NPYLR7 agonist
CCOCCCn1c(C)c(C)n2c3c(=O)n(Cc4ccc(F)cc4)c(=O)n(C)c3nc12	-3	0
CN(C)CC1(O)CCCN(C(=O)c2cccc(CC3CCNCC3)c2)CC1 (stereo unspecified)	2	3
Cc1[nH]n(-c2nc(-c3cccc([N+](=O)[O-])c3)cs2)c(=O)c1N=Nc1ccc(C(=O)O)cc1	-5	3
O=C(O)c1ccc(-c2cc(C(=O)O)c3[nH]c(-c4ccccc4)nc3n2)cc1	-4	-3
CCOC(=O)CSc1nc2c([nH]c3ccccc32)c(=O)n1-c1ccc(OCC)cc1	37	2
O=C(CC1=CCNCC1)N1CCC(c2n[nH]c(=O)n2-c2ccccc2)CC1	3	7
c1ccc(CCc2noc(CN3CCC(c4ccncc4)CC3)n2)cc1	0	3
CC(C)CN1CCC1(C)C(=O)Nc1cc(-c2ccccc2)nn1C (stereo unspecified)	-6	-7
O=C(Cn1cnc2c(nnn2Cc2ccccc2F)c1=O)N1CCCC1	10	8
Cc1cc(I)ccc1N=Cc1nc(-c2ccc(Br)cc2)oc1O	-7	-1
Cc1nccn1CC1CCCN(C(=O)Nc2nnc(Cc3ccccc3)s2)C1 (stereo unspecified)	0	1
Cc1cc(C)cc(CCC(=O)NCc2ccc(S(N)(=O)=O)cc2)c1	13	14
COc1ccc(-c2nnc(CNC(C)c3ccccc3Br)o2)cc1 (stereo unspecified)	5	9
Cn1c(SCC(=O)Nc2ccc(F)cc2)nc2ccsc2c1=O	13	18
C=CCSc1nc2c(c(=O)[nH]1)C(c1ccccc1)C(C(=O)C(C)C)=C(C)N2 (stereo unspecified)	-2	1
O=C1/C(=C/c2ccccc2)SC(=S)N1CC(=O)N1c2ccccc2Sc2ccc(Cl)cc21	-5	-1
Cc1c(F)cccc1N1C(=O)CSC1c1ccccc1N (stereo unspecified)	0	-6
Cc1nc2ccc(C(=O)NCCC(C)C)cn2c1N(C)C(=O)CCc1ccccc1	9	14
Cc1ccc(CC(=O)N(Cc2ccccn2)c2nc3ccc([N+](=O)[O-])cc3s2)c(C)c1	0	2
Cc1onc(-c2ccccc2)c1C(=O)NC1CCc2[nH]c3ccccc3c2C1 (stereo unspecified)	-14	-10

Going on with the list:
smiles	NPYLR7 agonist max-min	NPYLR7 agonist
O=C(NC1CCN(c2ccccc2C(=O)NCc2ccc3c(c2)OCO3)CC1)c1ccc(Cl)cc1	-5	-2
COc1ccc(S(=O)(=O)N(CC(=O)N[C@@]2(c3ccccc3)CCCC[C@H]2O)c2ccccn2)cc1	8	5
CCc1ocnc1C(=O)NC1CC(=O)N(Cc2cccc3ccccc23)C1 (stereo unspecified)	2	6
OCCNCc1cccc(Cl)c1Cl	-1	-4
O=C(Nc1ccccc1)C1COc2ccc(Cl)cc2C1 (stereo unspecified)	1	4
COc1ccc(C(CC(=O)N2CCN(c3cccc(C(F)(F)F)c3)CC2)c2c[nH]c3ccccc23)cc1 (stereo unspecified)	19	18
CN(C)c1nc(Cl)c(CN2CCC(OCc3ccccc3)CC2)s1	-6	-4

Whole records, quoted from the list. Order of screens: NPYLR7 agonist max-min, NPYLR7 agonist
Cc1nc(Nc2ccc3nc(C)sc3c2)c2c3c(sc2n1)CCC3 as listed: -3, -2
Cc1ccc(-c2cc(C(=O)O)n(-c3cccc(Cl)c3)n2)o1 as listed: 15, 14
